From PubChem
AF4-AF9 inh: inhibitors of human MLL-AF4/AF9 interaction; P42568; AlphaScreen, biotin-AF4 peptide binding to FLAG-AF9; inhibition, % at 10 µM; 0.47% of 350,000 active; AID 651704;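 active = every replicate reaching a set inhibition limit, whatever the replicate mean, cut at about 25% in these data; inconclusive = mean inhibition reaches that limit but some replicates miss it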;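 note: 0% = plate neutral control median and 100% = total signal loss; the record names both 10 and 1 µM as test concentration; the first replicate is given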
Target sequence (P42568 whole entry, looked up): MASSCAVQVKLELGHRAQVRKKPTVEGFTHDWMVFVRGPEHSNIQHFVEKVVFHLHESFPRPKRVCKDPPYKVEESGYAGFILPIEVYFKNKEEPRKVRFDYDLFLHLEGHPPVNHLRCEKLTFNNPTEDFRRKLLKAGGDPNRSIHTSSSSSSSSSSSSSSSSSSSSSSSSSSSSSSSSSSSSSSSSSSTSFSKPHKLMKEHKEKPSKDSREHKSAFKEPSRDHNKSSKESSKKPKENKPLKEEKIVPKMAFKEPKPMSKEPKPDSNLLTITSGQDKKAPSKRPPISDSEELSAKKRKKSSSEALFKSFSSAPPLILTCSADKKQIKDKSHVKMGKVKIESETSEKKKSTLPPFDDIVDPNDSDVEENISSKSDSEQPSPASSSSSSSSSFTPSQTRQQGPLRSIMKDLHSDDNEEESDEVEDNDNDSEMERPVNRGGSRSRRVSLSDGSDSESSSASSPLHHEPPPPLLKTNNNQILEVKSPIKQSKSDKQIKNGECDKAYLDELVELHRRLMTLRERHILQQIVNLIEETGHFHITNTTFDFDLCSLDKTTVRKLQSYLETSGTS
Beta cell apopt: beta cell apoptosis inhibition. AID 435005. protection from apoptosis, % (no concentration beside the values). 0.8% of 300,000 active. INS-1E cytokine-induced death, ATP luminescence, 48 h; percent of positive-control rescue, neutral wells zero;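 active = all replicates at 75% or more, or half of them and the mean; inconclusive = half reach 75% but not the mean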;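 note: 0% = cytokine-treated negative control wells and 100% = positive control rescue; higher means more ATP so stronger rescue from cytokine killing; wells of about 40 µL received 100 nL stock; the first replicate is given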
RanGTP-Imp inh: disruptors of Ran-importin-beta complex formation – biochemical, FRET, CFP-Ran, YFP-importin-beta, homogeneous, primary screen | cell-free CFP-Ran/YFP-importin-beta FRET ratio | inhibition, % (concentration not given with the values) | 1.1% of 300,000 active;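 active = most replicates above 15%; inconclusive = exactly half above 15%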;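 note: 0% = DMSO wells and 100% = Ran loaded with GDP instead of GTP; wells of about 40 µL received 100 nL stock; the first replicate is given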
T cruzi repl: blocks replication of Trypanosoma cruzi | T. cruzi beta-gal in NIH3T3, luminescence, 90 h | inhibition, % (test concentration not listed) | 1.4% of 300,000 active | AID 1885;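 active = mean inhibition across valid replicates above about 55%, limit read from the data; inconclusive = mean below that limit but half or more replicates reach it; inactive = mean below it, under half of replicates reach it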;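 note: signal also drops with host cell toxicity which is not excluded here; 0% = plate median of DMSO wells and 100% = zero luminescence signal; higher percent means less beta-gal luminescence so fewer parasites; stock transfer was 50 nL into about 50 µL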
Vif TR-FRET: inhibitors of Vif binding to APOBEC3G peptide, primary screen, biochemical, TR-FRET, GST-Vif 1-94, biotin-A3G peptide, dose response retest (AID 1117319); TR-FRET GST-Vif / biotin-A3G peptide binding; higher % means a stronger effect; test concentration not given here; strong numbers were not always called active; inhibition, %, or IC50 in µM where a hit was titrated; 0.57% of 260,000 active;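 active = above the screen mean plus three standard deviations and confirmed in dose response; inconclusive = results disagree or hit not tested in dose response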;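 note: Vif residues 1-94 fused to GST binding biotinylated APOBEC3G peptide 110-148; 0% = full assay without inhibitor and 100% = GST in place of GST-Vif; retest series ran down from 100 µM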
Calb FLC: C. albicans growth modulation with fluconazole; C. albicans CaCi-2 (fluconazole-resistant clinical isolate) + fluconazole, Alamar Blue growth, 48 h; growth inhibition, % (test concentration not listed); 0.57% of 300,000 active;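 active = most replicates above 75%; inconclusive = exactly half above 75%; inactive = most below 75%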;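 note: all wells also contain fluconazole at 8 µg/ml as a sub-toxic cotreatment; 0% = median of DMSO wells and 100% = median of geldanamycin control wells; wells of about 8 µL received 7.5 nL stock; the first replicate is given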
A1 inh: inhibitors of the anti-apoptotic protein A1, read as caspase activation; caspase activation, % (test concentration not listed); MEF A1-2A-BIM cells, Caspase-Glo 3/7 luminescence, 3 h; percent of clofoctol response, vehicle zero; 0.066% of 330,000 active; AID 2462;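 active = over half of replicate activation scores above 10%, or exactly half above 10 with the replicate mean above 10; inconclusive = replicate mean below 10 yet half the replicates above 10; inactive = over half of replicates below 10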;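 note: wells of about 30 µL received 50 nL stock; many hits fall short of the cut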
Ecoli rRNA inh: inhibitors of bacterial rRNA selective over humanized ribosomes | 1.6% of 350,000 active | AID 720706 | E. coli WT GFP vs humanized-ribosome RFP mutants, fluorescence, 24 h; hits give low values; DMSO median 0, no signal -100 | GFP signal change (wild-type ribosome), % (concentration not given with the values);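 active = significant combined selectivity score with lowered wild-type GFP, culture density cut under 30%, mutant RFP and density less affected; inactive = any of these conditions unmet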; note: one replicate is shown; some compounds called inactive have numbers as strong as hits
Ecoli rRNA inh OD600: second read-out of Ecoli rRNA inh, no call of its own (marks repeat the call); OD600 change, %; measured here: OD600 growth;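 optical density of the mix in the first replicate; 0 = DMSO median and -100 = no signal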
Ecoli rRNA inh RFP: second read-out of Ecoli rRNA inh, no call of its own (marks repeat the call); RFP signal change, %; measured here: RFP humanized mutant strains;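 first replicate; 0 = DMSO median and -100 = no signal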
Numbers without * were called inactive; ? = inconclusive; · = no result given; & = joins results of further samples. A portion of the library; count on the stated rates, not on these rows.

SMILES,AF4-AF9 inh,Beta cell apopt,RanGTP-Imp inh,T cruzi repl,Vif TR-FRET,Calb FLC,A1 inh,Ecoli rRNA inh,Ecoli rRNA inh OD600,Ecoli rRNA inh RFP
CCOC(=O)c1c(-c2ccccc2)oc2ccc(OCC)cc12,·,-1,2.4,20,-1%,-12,-0.1,·,·,·
CCC(C)C(=O)Nc1ccc([N+](=O)[O-])cc1OC (stereo not given),1.6,·,?,-1,·,5,-0.2,7,11,-0.1
COc1ccc(C(=O)C[n+]2ccc3c(c2)nc(-c2ccc(OC)cc2OC)n3C)cc1,·,1,4.2,40,-2%,-11,-0.1,·,·,·
Cn1c(SCc2ccccc2)nc(C(F)(F)F)cc1=O,-1.8,6,7.1,6,·,11,0.0,-23*,-18*,-3.9*
C=CCN1CCN(C(c2ccccc2OC)c2nnnn2C(C)(C)C)CC1 (stereo not given),-0.1,1,1.5,4,1%,-14,0.2,19,13,-1.8
CC(C)=CCc1c(O)c(CC=C(C)C)c2c(c1O)C(=O)CC(c1ccc(O)cc1)O2 (stereo not given),7.1,4,-4.7,21,6%,0,-0.2,·,·,·
COc1ccc(S(=O)(=O)N(C)c2ccc(C(=O)NC3CCCC3)cc2)cc1,-0.2,3,-4.4,11,2%,-7,1.6,-1,-4,-6.0
O=C(c1ccccc1)N1CCN(c2ccc([N+](=O)[O-])c(NCC3CCCO3)c2)CC1 (stereo not given),5.8,4,-3.2,3,-5%,4,-0.9,-32*,-8.4*,-5.0*
Cc1nc2ccc([N+](=O)[O-])cc2c(=O)n1Cc1ccc(Br)cc1,5.2,17,0.7,48,·,-2,0.4,-12,-5,-0.5
CCOC(=O)c1c(NC(=O)c2ccncc2)sc(C)c1C,-0.6,-1,0.3,25,·,36,0.1,17,8,0.8
CCC(C)NC(=O)CCn1ccc2cc(S(=O)(=O)N3CCCC3)ccc21 (stereo not given),-12,-2,5.2,-10,-3%,-2,0.2,5,12,1.2
COc1cc(Cl)c(C)cc1NC(=O)CNC(=O)Cn1cnc2ccccc2c1=O,·,-5,2.4,0,-5%,42,0.0,·,·,·
CCN1CCN(c2nc3ccccc3n3cnnc23)CC1,-9.0,0,-2.6,32,13%,-9,0.5,10,8,0.4
COC(=O)c1ccc(COc2ccc(/C=N/Nc3cccc(C(=O)O)c3)cc2)cc1,-10,-10,-5.3,-13,63µM*,4,-1.5,-1,-8,-5.7
COc1ccccc1Cn1nc(C(=O)O)c2ccccc2c1=O,0.0,2,3.1,4,·,-2,-2.3,0,14,-3.0

Reformatted: results already given.
Every second line gives: AF4-AF9 inh | Beta cell apopt | RanGTP-Imp inh | T cruzi repl | Vif TR-FRET | Calb FLC | A1 inh | Ecoli rRNA inh | Ecoli rRNA inh OD600 | Ecoli rRNA inh RFP
CCOC(=O)c1c(-c2ccccc2)oc2ccc(OCC)cc12
  · | -1 | 2.4 | 20 | -1% | -12 | -0.1 | · | · | ·
CCC(C)C(=O)Nc1ccc([N+](=O)[O-])cc1OC (stereo not given)
  1.6 | · | ? | -1 | · | 5 | -0.2 | 7 | 11 | -0.1
COc1ccc(C(=O)C[n+]2ccc3c(c2)nc(-c2ccc(OC)cc2OC)n3C)cc1
  · | 1 | 4.2 | 40 | -2% | -11 | -0.1 | · | · | ·
Cn1c(SCc2ccccc2)nc(C(F)(F)F)cc1=O
  -1.8 | 6 | 7.1 | 6 | · | 11 | 0.0 | -23* | -18* | -3.9*
C=CCN1CCN(C(c2ccccc2OC)c2nnnn2C(C)(C)C)CC1 (stereo not given)
  -0.1 | 1 | 1.5 | 4 | 1% | -14 | 0.2 | 19 | 13 | -1.8
CC(C)=CCc1c(O)c(CC=C(C)C)c2c(c1O)C(=O)CC(c1ccc(O)cc1)O2 (stereo not given)
  7.1 | 4 | -4.7 | 21 | 6% | 0 | -0.2 | · | · | ·
COc1ccc(S(=O)(=O)N(C)c2ccc(C(=O)NC3CCCC3)cc2)cc1
  -0.2 | 3 | -4.4 | 11 | 2% | -7 | 1.6 | -1 | -4 | -6.0
O=C(c1ccccc1)N1CCN(c2ccc([N+](=O)[O-])c(NCC3CCCO3)c2)CC1 (stereo not given)
  5.8 | 4 | -3.2 | 3 | -5% | 4 | -0.9 | -32* | -8.4* | -5.0*
Cc1nc2ccc([N+](=O)[O-])cc2c(=O)n1Cc1ccc(Br)cc1
  5.2 | 17 | 0.7 | 48 | · | -2 | 0.4 | -12 | -5 | -0.5

Continued:
SMILES,AF4-AF9 inh,Beta cell apopt,RanGTP-Imp inh,T cruzi repl,Vif TR-FRET,Calb FLC,A1 inh,Ecoli rRNA inh,Ecoli rRNA inh OD600,Ecoli rRNA inh RFP
Cc1ccc2nsnc2c1S(=O)(=O)N1CCN(Cc2ccc3c(c2)OCO3)CC1,·,·,-1.2,4,24%&16%,-59,0.4,·,·,·
CN(C(=O)COC(=O)c1ccccc1C(=O)c1ccccc1)c1ccccc1,4.4,-4,·,·,·,·,1.3,-3,-20,3.8
CCOC(=O)c1ccc(NC(=O)c2nc[nH]c2C(=O)NCCCCNC(=O)c2[nH]cnc2C(=O)Nc2ccc(C(=O)OCC)cc2)cc1,-15,54,·,·,·,·,0.0,14,-1,3.4
Cc1cccc(C)c1NC(=S)NN(Cc1ccccc1)c1ccccc1,·,4,-2.2,-2,-6%,-1,2.1,·,·,·
O=C1c2ccccc2CN1C(CO)c1ccccc1 (stereo not given),2.3,·,-0.6,-5,4%,-10,0.8,5,-7,-1.0
COC(=O)C1(C)Nc2ccccc2C(=O)N1c1ccccc1OC (stereo not given),3.1,3,-4.7,-12,·,12,1.0,11,13,-2.4
COc1ccccc1NC(=O)c1ccccc1C(=O)N(C)Cc1ccccc1,1.7,-2,·,·,5%,·,-0.3,23,16,2.8
O=C(Nc1ccc(-c2nc3ccccc3s2)cc1)C1=COCCO1,·,-1,0.1,0,-13%,7,-8.7,·,·,·
COc1ccc(COC(=O)c2nc3nc(C)cc(C)n3n2)cc1F,·,-6,2.8,-9,14%,-1,0.5,·,·,·
Cc1ccc(C)c(NS(=O)(=O)c2ccc3c(c2)NC(=O)CCS3)c1,2.2,2,1.4,13,·,-7,0.0,-3,-10,0.7
Cc1ccc(N(Cc2ccccc2)C(=O)c2cccc(S(=O)(=O)N3CCOCC3)c2)cc1,-5.9,3,-2.5,27,-1%,10,-0.7,-5,-20,1.3
CCN(C(=O)COc1cc(=O)n(CC)c2ccccc12)c1cc(Cl)ccc1OC,2.2,7,1.9,14,1%,9,0.7,-44,-67,-8.8
CC12CCC(=O)N1C(C(=O)Nc1ccc(F)c(F)c1F)CS2 (stereo not given),9.8,-7,·,-8,4%,-7,0.7,4,-1,-1.9
CC(=O)CSc1nnc(Cc2ccc3c(c2)OCO3)o1,·,-2,1.4,-1,-3%,-2,-0.2,·,·,·
N/C(=N\OC(=O)C(c1ccccc1)c1ccccc1)c1ccncc1,-0.9,1,?,21,18%,-4,0.6,4,2,-2.6
O=C(COc1ccc(Br)cc1)N1CCc2ccccc2C1,-0.8,-6,0.2,8,6%,-1,-0.4,-26*,-16*,3.7*
CCCn1c2ccccc2c2nc3ccccc3nc21,·,1,?,13,-4%,1,0.8,·,·,·
COc1ccc(C(=O)c2sc(Nc3ccccc3)nc2N)cc1OC,7.9,-24,-0.7,6,-3%,20,0.1,-49,-66,1.5
COc1ccc(NC(=O)[C@H](CCS(C)(=O)=O)N2Cc3ccccc3C2=O)c(OC)c1,-1.2,9,-2.9,1,-1%,-1,-0.3,-2,2,-0.6
CCOC(=O)c1sc2nc(C)nc(NCc3ccccc3OC)c2c1C,-0.5,-9,2.5,26,-10%,1,-0.3,-2,11,-3.8
CC(=O)c1ccccc1OCCn1nc(C(=O)O)c2ccccc2c1=O,-1.6,-1,-0.9,1,·,6,0.5,1,4,-2.1
CCN(CC(=O)Nc1c(F)cccc1F)C(=O)c1cc(C)oc1C,0.5,3,-0.3,-9,-2%,0,0.2,12,7,1.2
CCCCC(c1nnnn1CC1CCCO1)N1CCN(c2cccc(C)c2C)CC1 (stereo not given),·,-3,4.3,33,7%,-7,0.1,·,·,·
COc1ccc(CN2C(=O)[C@H]3Cc4c([nH]c5ccccc45)C(C)(C)N3C2=O)cc1,8.4,-3,1.6,-1,·,17,-0.9,-12,-27,-1.9
Cc1cc(C)c2cc(CN(Cc3ccc4c(c3)OCO4)Cc3nnnn3Cc3ccco3)c(=O)[nH]c2c1,·,-3,6.9,42,29%&3%,19,0.0,·,·,·
O=C(COC(=O)[C@@H]1CC(O)CN1S(=O)(=O)c1ccccc1[N+](=O)[O-])c1ccccc1 (stereo not given in full),0.7,-2,3.8,-10,22%,-5,0.2,8,2,-0.5
CC1Cc2cc(/C(O)=C3\C(=O)C(=O)N(CCN4CCOCC4)C3c3ccccc3F)ccc2O1 (stereo not given),·,·,1.9,2,?,0,-0.4,·,·,·
COc1cc2ccccc2cc1C(=O)OCC(=O)N(CC(C)C)c1c(N)n(Cc2ccccc2)c(=O)[nH]c1=O,-10,-2,·,-5,-1%,-3,0.9,-5,-2,3.9
CNC(=O)c1c(NC(=O)C2=COCCO2)sc2c1CCN(C(=O)OC)C2,3.2,·,-4.6,3,4%,4,-0.2,5,17,0.7
CC(C)(C)NC(=O)C(c1ccc(O)cc1)N(Cc1ccco1)C(=O)Cn1nnc(-c2cccs2)n1 (stereo not given),7.2,-3,-3.7,10,-5%,-13,-0.1,-6,-5,-2.9
COC(=O)c1c(C(=O)OC)n(CCCN)c2ccc(C)cc12,·,2,0.0,-8,6%,1,-0.3,·,·,·
Cc1cc(Cl)c2oc(C(=O)N3CCN(c4ccncc4)CC3)c(C)c2c1,5.0,48,-3.0,61*,·,-11,2.4,5,-18,-2.5
[O-]/[N+](=C/c1ccc(F)cc1)c1ccc(Cl)cc1,·,6,0.7,1,?,0,0.5,·,·,·
Cc1cc(-c2n[nH]c(=S)n2/N=C/c2cc([N+](=O)[O-])ccc2Cl)n[nH]1,1.9,·,0.7,-49,·,-4,·,13,16,-4.9
COc1cccc(/C=C/C(=O)NCc2cn3cc(Cl)ccc3n2)c1OC,-3.3,4,-1.4,11,-1%,21,1.0,-7,-3,0.5
CCOc1ccc(N(C(=O)c2cnsn2)C(C(=O)NC2CCCCC2)c2ccncc2)cc1 (stereo not given),-3.4,0,·,-3,·,-6,-0.1,1,1,-1.1
O=C(Nc1cccc(-c2cscn2)c1)C1CCN(Cc2ccccn2)CC1,-0.3,·,-5.7,-9,·,21,·,5,0,-0.9
